High-throughput results deposited in PubChem BioAssay by National Center for Advancing Translational Sciences (NCATS).
Rango-impB inh: inhibitors of Rango-importin beta complex formation; hit rate 0.031% among 340,000; Potency, µM (doses to about 92.2 µM), inactives show top-dose inhibition of complex formation; Rango CFP/YFP FRET sensor + importin beta, 45 min; Q14974; AID 540263; active = rising FRET ratio curve, often small or poorly fitted; inconclusive = mostly compound fluorescence or quenching in the first reads; inactive = flat curves in all reads;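 note: potency is the fitted concentration of half-maximal effect; 0% = DMSO wells and 100% = buffer wells lacking importin beta; nearly all actives have a fitted effect of over 15% in size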
Target sequence (Q14974 whole entry, looked up): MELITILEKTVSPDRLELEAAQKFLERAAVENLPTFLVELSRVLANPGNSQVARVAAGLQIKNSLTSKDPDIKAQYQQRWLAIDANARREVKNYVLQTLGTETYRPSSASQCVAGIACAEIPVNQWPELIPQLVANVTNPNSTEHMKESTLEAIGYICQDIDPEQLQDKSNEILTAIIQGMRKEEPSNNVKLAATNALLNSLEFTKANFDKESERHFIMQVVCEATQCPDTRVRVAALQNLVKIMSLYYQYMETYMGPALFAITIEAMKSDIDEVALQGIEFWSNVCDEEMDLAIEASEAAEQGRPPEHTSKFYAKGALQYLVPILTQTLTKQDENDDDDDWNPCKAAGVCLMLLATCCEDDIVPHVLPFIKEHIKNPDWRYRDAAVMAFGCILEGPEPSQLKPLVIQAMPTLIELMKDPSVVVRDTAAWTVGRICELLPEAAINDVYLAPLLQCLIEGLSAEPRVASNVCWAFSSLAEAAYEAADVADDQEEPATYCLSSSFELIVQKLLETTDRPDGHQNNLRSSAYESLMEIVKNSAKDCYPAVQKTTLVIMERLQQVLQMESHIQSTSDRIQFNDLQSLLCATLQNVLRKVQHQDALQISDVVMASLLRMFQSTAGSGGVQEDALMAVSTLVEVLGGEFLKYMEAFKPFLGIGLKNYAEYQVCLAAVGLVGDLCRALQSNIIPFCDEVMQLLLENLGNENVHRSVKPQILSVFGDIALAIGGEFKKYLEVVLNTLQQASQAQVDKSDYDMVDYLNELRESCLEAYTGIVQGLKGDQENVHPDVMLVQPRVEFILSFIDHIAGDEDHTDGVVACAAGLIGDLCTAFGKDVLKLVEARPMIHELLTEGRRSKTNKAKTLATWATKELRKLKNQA
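FRET biosensor (snurportin 1 IBB flanked by EYFP and cerulean), 50 nM, with compound 5 min, then 0.125 microM importin beta in PBS, 1 mM DTT, 0.02% Tween-20, 0.1% BSA. CFP/YFP ratio read after 45 min at room temperature; pre-read flags interference.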
Rango release inh: inhibition of RanGTP-driven Rango-importin beta dissociation; O95149+P62826; Biochemical FRET Rango-importin beta, RanGTP-induced dissociation; Potency, µM (highest dose often 46.1 µM), for inactives: at the highest dose activity change, negative = inhibition; hit rate 0.071% among 340,000; AID 540253; active means falling FRET ratio curve, often poorly fitted, with flat reads before Ran was added; inconclusive means other falling curves, or compound fluorescence or quenching; inactive means flat or rising ratio curve;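 note: potency is the fitted concentration of half-maximal effect; % of control where 0% means no effect; nearly all actives have a fitted effect of over 45% in size; -100% = wells without RanGTP and RCC1; the record marks most hits as doubtful in a second field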
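Quantitative HTS using a FRET biosensor: 0.1 uM Rango, 0.25 uM importin beta, 0.6 uM Ran, 2 mM GTP, 0.2 uM RCC1 final, PBS with DTT, Tween-20 and BSA. Post-read taken 45 min after Ran addition.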
miR-21 reporter: miR-21 reporter, rising signal. 340,000 tested, under 10 active. HeLa miR-21 FLuc reporter, luciferase, 48 h. Potency, µM (top dose mostly 38.3 µM), without a hit: at the top dose reporter change, positive = more light; active = well fitted rising curve with a large enough effect; inconclusive = small, poorly fitted or top-dose-only effect; inactive = no such curve, though single readings can be large or run the other way;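 note: % of control where 0% means no effect; miR-21 action dims this reporter so a rising signal means less miR-21 action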
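HeLa cells endogenously expressing miR-21, stably carrying CMV-driven firefly luciferase with a downstream miR-21 binding site, 2000 cells/well. Titrations up to approximately 40 uM, 48 hours; luciferase luminescence read.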
GLA inh pH 4.5: blocks human alpha-galactosidase A at pH 4.5; activity change, negative = inhibition, % at 105 µM; P06280; AID 1467; purified enzyme, 4-MU-alpha-Gal fluorescence, pH 4.5; 230,000 tested, under 10 active; inconclusive = small, poorly fitted or top-dose-only inhibition, or a rising curve; inactive = flat fitted curve, though single readings scatter; no compound was filed as active;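 note: 0% = full activity with enzyme and -100% = basal without enzyme; dose as in the result columns while the protocol names 77 µM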
Starred values were filed as active, the others as inactive; ? = inconclusive; nt = no result given; & = joins results of further samples.

Results follow in this order: Rango-impB inh	Rango release inh	miR-21 reporter	GLA inh pH 4.5
Cc1nccn1CC(O)COc1ccc(Cl)cc1Cl (stereo not given)
 : 0.6%	4%	5%	nt
Cn1nccc1C(=O)N1CCN(c2cccc(C(F)(F)F)c2)CC1
 : 0.3%	10%	-4%	nt
C=CCc1cccc2cc(C(=O)N3CCN(C(=O)c4ccccc4)CC3)c(=O)oc12
 : -1.4%	-13%	-5%	nt
CC1=CC(=O)C(C(C)C)=C/C1=N\OC(=O)c1cccc2nc(C)oc12
 : -2.1%	23%	2%	-2
O=[N+]([O-])c1cc(S(=O)(=O)N2CCCC2)ccc1N/N=C1/CCCc2ccccc21
 : 0.5%	5%	0%	-8
CCOC(=O)CC1C(=O)NCCN1c1nc2ccc(C)cn2c(=O)c1/C=C1\SC(=S)N(CC(C)C)C1=O (stereo not given)
 : ?	?	-5%	-6
NC1CCN(c2c(F)cc3c(=O)c(C(=O)O)cn(C4CC4)c3c2Cl)C1 (stereo not given)
 : -1.4%	-6%	-6%	-3
CCOc1cc2[nH]c(=O)n(CCC(=O)NCCc3ccccc3)c(=O)c2cc1OCC
 : -0.2%	-13%	-2%	2
CCC(C(=O)NC1CCCC1)N(C(=O)Cn1nnc(-c2ccc(C)o2)n1)c1cccc(OC)c1 (stereo not given)
 : -0.9%	-4%	0%	nt
Cc1cccc(Nc2nc(N)nc(CN3CCN(C)CC3)n2)c1
 : -0.2%	-13%	0%	5
CN1CCN(S(=O)(=O)c2ccc(NC(=S)NC(=O)C3CCCC3)cc2)CC1
 : 1.1%	3%	2%	5
O=C1CCN(Cc2ccccc2)C=C1c1ccc2ccccc2c1
 : 0.1%	?	nt	nt
C/C(=N/NC(=O)c1ccc(Cn2cccn2)o1)c1cccc(NC(=O)c2ccncc2)c1
 : 4.0%	-5%	-5%	nt
CCOc1nc(-c2ccccc2O)nc2ccccc12
 : 3.7%	6%	-4%	-3
CCCn1c(SCC(=O)NC)nnc1C(C)C
 : 0.7%	8%	-6%	-3
COc1ccc(CNC(=O)Cc2ccc(NC(=O)C3=C(C)OCCS3)cc2)cc1
 : 0.9%	-14%	1%	nt
Cc1nn2c(-c3ccc(F)cc3)ccnc2c1Cl
 : 0.3%	-2%	-17%	nt
O=C(CN(C1CCCCC1)S(=O)(=O)c1ccccc1)N1CCCC1
 : -3.7%	3%	-7%	1
CCCCCCSc1nnc(N)s1
 : 0.8%	20%	-21%	-8
CC(C)(C)OC(=O)N[C@@H](Cc1c[nH]c2ccccc12)c1nnc(SCC(N)=O)o1
 : 2.2%	10%	-5%	-6
COc1cc([C@@H]2c3cc4c(cc3[C@@H](O)[C@H]3COC(=O)[C@H]23)OCO4)cc(OC)c1O[Si](C)(C)C(C)(C)C
 : -0.1%	0%	?	-10
COc1ccc(-c2cc(C(=O)NNC(=S)NC(=O)c3c(-c4ccccc4)noc3C)[nH]n2)cc1
 : -1.8%	-5%	2%	-8
Cc1ccc(S(=O)(=O)N(C)c2ccc(OCC(=O)OCc3c(C)noc3C)cc2)cc1
 : 3.3%	1%	-6%	-8
COCCN(CC(=O)Nc1ccccc1C(F)(F)F)C(=O)/C=C/c1cc(Cl)c2c(c1)OCO2
 : 6.1%	26%	nt	nt
CC(=O)Nc1ccc(NC(=O)CCC(=O)Oc2ccc(C)cc2)cc1
 : 0.2%	13%	-1%	nt
O=C(Nc1ccccc1)c1nc[nH]c1C(=O)N1CCc2ccccc2C1
 : 3.8%	28%	nt	nt
CO/N=C/c1ccc(N2CCCC2)c([N+](=O)[O-])c1
 : -3.0%	1%	-20%	-4
O=C(Nc1ccccc1Cl)OCc1cncs1
 : 0.3%	-15%	-44%	4
O=C(NC(Cc1ccccc1)C(=O)N1CCCCC1)c1ccccc1 (stereo not given)
 : 1.5%	-9%	nt	nt
Cc1ccc(-c2c(C(=O)N/N=C/c3cccs3)nnn2-c2nonc2N)cc1
 : 3.3%	3%	3%	nt
CC1CCN(C(=O)c2ccc(CNS(=O)(=O)c3ccc(C(C)(C)C)cc3)cc2)CC1
 : -4.6%	-6%	nt	nt
N#Cc1c(N)n(CCNC(=O)c2cccs2)c2nc3ccccc3nc12
 : ?	?	-1%	?
COc1ccc(C2=NOC(C(=O)Nc3ccc4c(c3)OCO4)C2)cc1OC (stereo not given)
 : 0.3%	6%	-29%	6
CC(/C=N/NC(=O)Cn1cnc2c1c(=O)n(C)c(=O)n2C)=C\c1ccccc1
 : 0.2%	-1%	0%	3
CCN(CC)CCOC(=O)c1ccc(NC(=O)c2cccc(C)c2[N+](=O)[O-])cc1
 : 2.6%	-3%	-19%	-1
Cc1ccc(C(=O)NCC(=O)OC(C)C(=O)NC2CCCc3ccccc32)cc1 (stereo not given)
 : -1.9%	-4%	nt	nt
Cc1ccc(CSc2nnc(-c3ccncc3)n2N)cc1
 : -1.0%	-3%	-9%	-1
Cc1ccc(C(=O)Oc2ccccc2N2C(=O)C3C4CCC(C4)C3C2=O)cc1 (stereo not given)
 : ?	0%	-12%	3
Cn1c(=O)c2c(nc(N3CCCCCC3)n2CC(=O)c2ccccc2)n(C)c1=O
 : 2.3%	-15%	-2%	-3
COCCNC(=S)N1CCN(c2ccc(Cl)cc2)CC1
 : -0.3%	1%	-2%	-11
CC(C)Cn1cc(C(=O)NCCCN2CCCC2=O)c2c3ccccc3n(C)c2c1=O
 : -0.6%	12%	0%	11
Cn1c(SC2CCCCC2=O)nnc1-c1ccncc1 (stereo not given)
 : -1.6%	-2%	-4%	-3
CCCCn1c(=N)n(CC(O)COc2ccc(C)cc2)c2ccccc21 (stereo not given)
 : -1.5%	1%	10%	9
C=CCOc1ccc(CNCC2CCCO2)cc1 (stereo not given)
 : -0.2%	-14%	-10%	nt
Cc1ccc(SC(C)c2nc(-c3cccnc3)no2)cc1 (stereo not given)
 : 1.8%	-9%	-4%	-5
Cc1cc(/C=C2\SC(=S)NC2=O)c(C)n1-c1ccccc1
 : ?	?	1%	-13
CC(=O)N1N=C(c2cccs2)CC1c1ccc(C)o1 (stereo not given)
 : 0.0%	-6%	-11%	nt
CC[C@H](C)Cc1cn([C@@H](CCCCN)C(=O)NCCCCCCCCCCC(=O)N2CCNCC2)nn1
 : 1.5%	23%	nt	nt
Cn1nnc(NC(=S)NC(=O)/C=C/c2ccco2)n1
 : ?	-5%	-2%	1
CNC(=O)/C=C/c1cccc(C(F)(F)F)c1
 : 4.0%	12%	-14%	3
CCC(C)(C(=O)Nc1ccc(OC)cc1)N(C)C(=O)Cn1nnnc1N (stereo not given)
 : 1.5%	-7%	1%	nt
Cn1c(Cn2c(=O)sc3ccccc32)nnc1SCC(=O)NCc1ccccc1Cl
 : 7.6%	-3%	-2%	-20
O=C1CCc2cc(S(=O)(=O)N3CCCC3C(=O)NC3CCCCCCC3)ccc2N1 (stereo not given)
 : -2.4%	12%	0%	-1
O=C(Nc1nnc(SCC(=O)N2CCCCC2)s1)c1ccccc1F
 : 3.0%	-6%	-17%	nt
Cc1cccc(NC(=O)CN2C(=O)CCSc3ccc(S(=O)(=O)N4CCOCC4)cc32)c1C
 : 0.2%	20%	-6%	nt
O=C(CNC(=O)c1ccco1)N/N=C/c1cc(Br)ccc1O
 : ?	-19%	29%	nt
O=C(COC(=O)c1ccccc1NC(=O)C1CC1)c1ccc2c(c1)OCCO2
 : nt	nt	-8%	-3
Cc1ccc(-c2nnn(CC(=O)NC3CC4CCC3C4)n2)cc1 (stereo not given)
 : -2.1%	-18%	-9%	8
COc1cccc(C(=O)N2CCN=C2SCc2cccnc2)c1OC
 : -0.6%	8%	-12%	2
O=C(NCCCN1CCOCC1)c1ccc2c(=O)n(CCc3ccccc3)c(=O)[nH]c2c1
 : ?	9%	-1%	?

Remaining list, next part:
Results follow in this order: Rango-impB inh	Rango release inh	miR-21 reporter	GLA inh pH 4.5
COc1ccc(-n2c(SCC(=O)NCC3CCCO3)nc3n[nH]c(C)c3c2=N)cc1 (stereo not given)
 : -1.7%	-2%	-18%	-1
O=C1Nc2ccccc2C1=Nc1ccc(F)cc1
 : 1.1%	-7%	1%	nt
COCCC(=O)NC1CCCc2c1cnn2-c1cccc(C)c1C (stereo not given)
 : -1.2%	-11%	2%	nt
COc1ccc(OC(C)C(=O)NC2CC(C)(C)NC(C)(C)C2)cc1 (stereo not given)
 : 2.2%	-3%	-8%	2
COC(=O)c1ccc(-c2ccco2)n1Cc1cc(C)ccc1C
 : -1.2%	2%	3%	1
Cc1cccc(CNC(=O)c2ccc3c(c2)N(C)CCS3)c1
 : 2.0%	25%	-13%&-15%	nt
Cc1cnc(C(=O)Nc2ccc3c(c2)CCC3)cn1
 : 4.0%	20%	-39%	3
Cc1ccc(N(CC(=O)Nc2cccc(Cl)c2C)S(C)(=O)=O)cc1
 : -3.3%	4%	-3%	nt
CC(C)C(=O)NC(Nc1cc(C(F)(F)F)ccc1Cl)C(Cl)(Cl)Cl (stereo not given)
 : -2.3%	11%	3%	-6
CCOC(=O)c1c(S(=O)(=O)N2CCN(c3ccc(C(C)=O)cc3)CC2)c(C)n(C)c1C
 : 7.0%	0%	-13%	nt
Cc1ccc(C(=O)COC(=O)c2nc3nccc(C)n3n2)c(C)c1
 : -5.0%	12%	nt	nt
O=C(c1cc(-c2ccccc2)nn1-c1ccccc1)N1CCN(S(=O)(=O)c2cccc(F)c2)CC1
 : -1.2%	-7%	nt	nt
CCOC(=O)C1=C(C)NC(SCC(=O)Nc2cc(C)on2)=C(C#N)C1c1cccs1 (stereo not given)
 : 0.0%	2%	28%	-16
CC(C)(C)C(=O)NC(=S)NCCc1ccccc1
 : 1.3%	-11%	-30%	-26
NC(=O)c1sc2nc(-c3ccccc3)c3c(c2c1N)CCCC3
 : ?	?	4%	-10
CCCCc1ccc(NC(=S)Nc2ccc(Nc3ccc(OC)cc3)cc2)cc1
 : 3.4%	1%	3%	1
CCOC(=O)C1CCCN(S(=O)(=O)c2cc3c4c(c2)CCC(=O)N4CCC3)C1 (stereo not given)
 : 1.2%	-18%	nt	nt
CCn1cc(NC(=O)Nc2ccccc2C(=O)OC)c(C(N)=O)n1
 : 6.4%	6%	-7%	4
CCn1c(C)c(C(C)=O)c(N2CCN(c3ccc(OC)cc3)CC2)nc1=S
 : 2.3%	-11%	-1%	-7
O=C(NCc1ccccc1)C1CCCN1S(=O)(=O)c1ccc(Cl)cc1 (stereo not given)
 : 0.4%	-3%	1%	nt
C[C@H](CO)N1C[C@H](C)[C@@H](CN(C)Cc2ccc(-c3ccccc3)cc2)Oc2c(NS(=O)(=O)c3cccs3)cccc2C1=O
 : -1.2%	9%	nt	nt
Cc1[nH]nc2c1C(c1ccccc1F)CC(=O)N2 (stereo not given)
 : 3.1%	13%	1%	5
O=C(COc1ccccc1)NC(Cc1c[nH]c2ccccc12)C(=O)O (stereo not given)
 : 0.1%	2%	2%	-13
COc1ccc(C2CC(c3cccs3)=NN2C(=O)CCC(=O)O)cc1OC (stereo not given)
 : ?	7%	-5%	nt
O=C(NC1=NCCS1)c1ccc(Cl)c(Cl)c1
 : -3.4%	-11%	-45%	nt
CC1Cc2ccccc2N1S(=O)(=O)c1cccc(C(=O)NCCCn2ccnc2)c1 (stereo not given)
 : -0.3%	0%	6%	11
Cc1cccc(NC(=S)N2CCN(C(=O)c3ccco3)CC2)c1
 : -2.9%	-12%	-9%	nt
CC(Sc1nnc(NC2CC2)s1)C(=O)Nc1ccc(N2CCOCC2)cc1 (stereo not given)
 : -1.5%	-6%	nt	nt
Cc1ccsc1C(=O)OCC(=O)Nc1nnc(-c2ccccc2)o1
 : 2.5%	4%	nt	nt

Arranged by molar mass (high to low): some entries from above.
Results follow in this order: Rango-impB inh	Rango release inh	miR-21 reporter	GLA inh pH 4.5
CCOC(=O)C1CCCN(S(=O)(=O)c2cc3c4c(c2)CCC(=O)N4CCC3)C1 (stereo not given)
 : 1.2%	-18%	nt	nt
COc1ccc(OC(C)C(=O)NC2CC(C)(C)NC(C)(C)C2)cc1 (stereo not given)
 : 2.2%	-3%	-8%	2
Cc1cnc(C(=O)Nc2ccc3c(c2)CCC3)cn1
 : 4.0%	20%	-39%	3

Looked up above.
Result for O=C1Nc2ccccc2C1=Nc1ccc(F)cc1 in Rango release inh: -7%
Result for COc1ccc(-n2c(SCC(=O)NCC3CCCO3)nc3n[nH]c(C)c3c2=N)cc1 (stereo not given) in miR-21 reporter: -18%

The list is partial, so the mix of outcomes need not match the whole.
